# High-throughput results: PubChem BioAssay, several laboratories
# YopH PTP inh = YopH tyrosine phosphatase inhibitors, primary screen, biochemical, fluorescence Ex485/Em525. YopH tyrosine phosphatase [Yersinia enterocolitica]. inhibition, %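 (about 10 µM by stock and volumes)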. hit rate 0.16% among 140,000. AID 898, 2007;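 active means inhibition of 50% or more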;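 further: controls were vehicle for no effect and minimum signal wells for full effect; inactives centre near -20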
# Mtb growth = M. tuberculosis H37Rv growth inhibitors, H37Rv strain (AID 1626); M. tuberculosis H37Rv growth inhibition; higher % means a stronger effect; hit rate 0.95% among 220,000; one-dose inhibition, % at 10 µM; IC50 in µM for titrated hits;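 active means confirmed in a dose series; inconclusive means inhibition above 80% but not taken into the dose series; inactive means below 80% or under 30% at every dose of the series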;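 further: bacteria incubated seven days before Alamar blue readout; 0% = bacteria only wells and 100% = bacteria with antibiotic wells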
# Arbovirus inh = antivirals against arbovirus infection, primary screen, cell-based, full library, 10K replicate subset; arbovirus infection cell-based antiviral screen; inhibition, % at 10 µM; AID 1251, 2008; hit rate 0.37% among 200,000;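 active means inhibition from about 30%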;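 further: bluetongue infection of BSR cells; cell survival read as ATP light after 72 h; 0% = infected wells without compound and 100% = uninfected wells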
# Mtb bLac sens = beta-lactam sensitization of Mtb H37Rv, H37Rv | M. tuberculosis H37Rv growth with meropenem, percent inhibition; hits of this screen are not shown here | inhibition, % at 25 µM | hit rate 0.27% among 330,000 | AID 434955, 2010;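 active means about 74% or more and at least 40 points above the plate without the antibiotic, then above 30% in a dose series; inconclusive means first-round hits that could not be retested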;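 further: growth measured after seven days incubation then overnight dye step; 0% = bacteria only wells and 100% = bacteria with antibiotic; twin plates without the antibiotic show which effects depend on it; some results filed as inactive read as strong as hits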
# RecA intein inh = Mtb RecA intein splicing inhibitors, primary screen, biochemical, fluorescence, HTS; Protein RecA (Mycobacterium tuberculosis (strain ATCC 25618 / H37Rv)), P9WHJ3; cell-free RecA intein splicing; hit rate 0.75% among 290,000; inhibition, %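 (about 9 µM by stock and volumes)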; in the data active means inhibition above about 30%; inconclusive means no clear call, values can overlap the other calls;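 further: 0% = vehicle wells and 100% = reference inhibitor control wells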
# Target sequence (P9WHJ3 whole entry, looked up): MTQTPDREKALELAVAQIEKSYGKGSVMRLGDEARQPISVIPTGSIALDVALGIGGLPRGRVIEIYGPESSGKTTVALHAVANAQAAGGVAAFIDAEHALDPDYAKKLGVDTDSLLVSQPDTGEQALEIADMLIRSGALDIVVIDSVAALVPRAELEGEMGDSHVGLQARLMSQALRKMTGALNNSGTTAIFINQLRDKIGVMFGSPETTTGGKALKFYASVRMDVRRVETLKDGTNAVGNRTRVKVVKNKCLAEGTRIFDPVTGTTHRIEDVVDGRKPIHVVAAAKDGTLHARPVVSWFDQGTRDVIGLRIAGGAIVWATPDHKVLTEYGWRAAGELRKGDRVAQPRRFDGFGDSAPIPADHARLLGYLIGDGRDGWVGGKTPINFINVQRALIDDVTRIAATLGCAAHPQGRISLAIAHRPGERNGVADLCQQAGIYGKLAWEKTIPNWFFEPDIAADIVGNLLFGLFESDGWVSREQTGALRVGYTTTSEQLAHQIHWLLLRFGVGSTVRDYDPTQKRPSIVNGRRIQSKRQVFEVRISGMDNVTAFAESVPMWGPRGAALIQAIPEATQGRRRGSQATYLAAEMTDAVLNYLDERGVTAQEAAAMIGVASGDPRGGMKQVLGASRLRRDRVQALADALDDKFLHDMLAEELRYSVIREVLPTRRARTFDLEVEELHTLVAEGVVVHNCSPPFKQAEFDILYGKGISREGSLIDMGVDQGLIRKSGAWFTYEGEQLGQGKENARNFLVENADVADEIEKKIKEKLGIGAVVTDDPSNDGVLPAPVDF
# Arbovirus inh repeat = recorded beside Arbovirus inh, whose call it bears; inhibition, %; measured here: 10K subset replicate screen; many hits read low in the repeat;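 first of two repeat runs on a subset; 0% = infected and 100% = uninfected wells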
# The depositor's hits bear a star; ? = inconclusive; nt = not tested or not shown. This is a subset; count on the stated rates, not on these rows.
SMILES,YopH PTP inh,Mtb growth,Arbovirus inh,Mtb bLac sens,RecA intein inh,others
Fc1ccc(-c2n[nH]c(=S)c3ccccc23)cc1,nt,-9%,-1,0,-1.1,
O=C1CCN(CCc2ccccc2)CCN1CCO,nt,nt,nt,7,-0.1,
N#Cc1nc(-c2ccccc2Cl)oc1N1CCCCC1,-31,7%,0,21,0.9,
O=C(NCCc1ccc(Cl)cc1)C1CCCN(S(=O)(=O)N2CCCCCC2)C1 (centres undefined),nt,nt,nt,4,0.1,
COCCNC(=O)C(=O)NCC1OCCN1S(=O)(=O)c1ccc(C)cc1 (centres undefined),nt,nt,nt,-15,0.0,
Cn1c(NC(=O)CC(C)(C)C)cc(=O)n(C)c1=O,-16,-7%,-2,3,nt,Arbovirus inh repeat=1
Cc1cc2nc(-c3ccncc3)cc(C(F)(F)F)n2n1,nt,-6%,-7,0,-1.4,
COc1ccccc1CNS(=O)(=O)c1cc(-c2cc(C)no2)ccc1C(C)C,nt,nt,nt,19,-0.8,
O=C(COc1nnc2ccccn12)N1CCN(S(=O)(=O)c2ccccc2)CC1,-34,-7%,nt,-6,-2.1,
OCC[C@@H]1C[C@@H](O)[C@H](O)[C@]2(Cc3ccccc3O2)O1,nt,nt,nt,-2,-3.0,
COc1cccc(-c2nn(-c3ccccc3)cc2CN(C)C(C)c2ccncn2)c1 (centres undefined),nt,13%,-2,86,5.5,
Cc1cccc(C(=O)c2c(N)sc3c2CCCC3)c1,1,0%,-4,-6,1.7,
CSc1cnn(Cc2ccccc2)c(=O)c1SCc1ccccc1,-24,4%,3,-6,1.5,
CC1CN(S(=O)(=O)c2ccc(NC(=O)c3cc(-c4ccccc4O)n[nH]3)cc2)CC(C)O1 (centres undefined),-19,6%,2,2,-1.2,
Cn1c2c(c(=O)n(C)c1=O)[C@@]1(C(=O)Nc3ccccc31)C(C#N)=C(N)O2,6,9%,5,0,34*,
COc1ccc(Cl)cc1NC(=O)NCCCl,-6,6%,7,-10,0.1,
COC(=O)c1c(NC(=O)c2ccc(Br)s2)sc2c1CCC2,-26,6%,-8,12,1.6,
CCOc1ccccc1N(CC(=O)N1CCCCCC1)S(=O)(=O)c1ccc(C)cc1,nt,nt,nt,-2,4.3,
Cc1ccc(SCC(=O)c2cc(C)c(O)c(C)c2)cc1,nt,nt,nt,5,11,
CC(C)(C)OC(=O)NCCc1nnc(SCc2cccc(Cl)c2)o1,nt,14%,nt,-2,-2.3,
COc1ccc(C(=O)Oc2ccc[nH]c2=O)cc1,nt,-6%,nt,-4,-1.3,
CCCCNC(=O)CN1C(=O)C(CC)Oc2ccc(Cl)cc21 (centres undefined),-14,10%,6,37,0.8,
OCC1CCCCN1C(=S)NCc1ccco1 (centres undefined),nt,1%,1,12,2.5,
COc1ccc(C(=O)COC(=O)C(CCSC)NC(=O)COc2ccccc2)cc1 (centres undefined),nt,nt,nt,5,-1.6,
CCn1c(SCC(=O)Nc2ccccc2F)nnc1-c1ccoc1C,nt,nt,nt,4,1.5,
O=C(CSc1nc2ccsc2c(=O)n1CC1CCC(C(=O)O)CC1)c1ccc(Cl)cc1 (centres undefined),nt,5%,9,0,-2.2,
COCCNC(=O)CN1CCC(NC(=O)c2ccco2)CC1,nt,-8%,8,-8,-0.7,
CC1CCN(c2oc(-c3ccccc3F)nc2C#N)CC1,-6,7%,-6,?,2.1,Arbovirus inh repeat=3
Cc1ccc(C(=O)c2cc3ccccc3o2)cc1[N+](=O)[O-],nt,7%,-2,-3,5.0,
O=C(O)c1ccc2c(c1)[C@@H]1C=CC[C@@H]1[C@H](c1ccccn1)N2,11,-9%,nt,5,9.3,
CCOc1ccc(NC(=O)CN(C)C(=O)c2ccccc2SCC(=O)N2CCCC2)cc1OCC,nt,nt,nt,-1,12,
Cc1ccccc1NS(=O)(=O)c1nnc(NC(=O)c2ccccc2F)s1,nt,nt,nt,22,2.5,
CC(=O)c1ccc(S(=O)(=O)N2CCN(C(=O)C3CCCC3)CC2)cc1,nt,nt,nt,0,1.9,
C/C(=N\NC(=O)c1nnn(-c2nonc2N)c1CN(C)c1ccccc1)c1cccc(O)c1,nt,nt,nt,-2,-1.1,
CCOc1ccc(-c2csc(Cn3c(CN4CCN(C)CC4)nc4ccccc4c3=O)n2)cc1,-2,2%,-20,1,0.0,
O=C1C=C(O)c2cccc(O)c2C1=O,nt,5%,nt,-6,nt,
FC(F)(F)c1cc(-c2cccs2)nc(-n2cc(Cl)cn2)n1,-11,-10%,0,0,-0.5,
Cc1nc2ccc(NC(=S)N3CCC(C)CC3)cc2nc1C,nt,-8%,-6,-1,-4.2,
O=C(NCCCc1ccccc1)C1CCC(CNc2c(N3CCCCC3)c(=O)c2=O)CC1 (centres undefined),nt,nt,nt,-4,0.6,
CN(C)c1nc(-c2cccs2)cc(C(F)(F)F)c1C#N,nt,4%,nt,8,-16,
COC(=O)CN(C(=S)Nc1ccccc1)C1CC(=O)N(c2ccc(OC)cc2)C1=O (centres undefined),-21,-3%,2,nt,1.3,
CCCCCSc1nnc(-c2cc(Br)ccc2N)c(=O)[nH]1,-30,-8%,17,13,6.8,
Cc1cccc(NC(=O)NC2CC3CCC(C2)N3Cc2ccco2)c1 (centres undefined),nt,-13%,5,-9,2.4,
O=C(N/N=C/c1ccc([N+](=O)[O-])o1)c1cc2ccccc2o1,nt,?,nt,100,4.3,
CCN1C(=O)[C@@H]2[C@@H](c3ccc(SC4CCCCC4)cc3)N3CCC[C@@]3(C(=O)OC)[C@@H]2C1=O,nt,nt,nt,-9,3.6,
CC(=O)Nc1cccc(C(=O)N/N=C/c2cccnc2)c1,nt,3%,3,-1,-2.5,
O=C(Nc1ccccc1F)Nc1ccccc1F,nt,1%,-2,5,1.5,
O=C(CN1C(=O)c2ccccc2S1(=O)=O)NCc1ccccc1Cl,-34,-16%,14,-1,nt,Arbovirus inh repeat=7
O=C(Nc1ccon1)C12CC3CC(C1)CC(n1cnc([N+](=O)[O-])n1)(C3)C2,nt,3%,2,-3,1.9,
COc1ccc(C2(CNC(=O)Cc3ccc(OC)c(OC)c3)CCCC2)cc1,nt,-7%,0,4,-1.1,
C=CCOc1ccc2c(c1)C(=NO)c1cc(OCC=C)ccc1-2,-7,77%,-8,98,nt,
Cc1cccc(NC(=S)NC(NC(=O)OCc2ccccc2)C(Cl)(Cl)Cl)c1 (centres undefined),1,7%,14,0,-1.3,
Cc1ccc(OCC(=O)N/N=C/C=C/c2ccco2)cc1C,1,5%,-10,-2,5.4,
CSc1nc2c(c(-c3ccccc3)c1C#N)CCC2,0,10%,nt,7,1.4,
COc1ccc(Cl)cc1-c1n[nH]c(=S)n1C1CCCCC1,-33,1%,6,0,3.6,
CCOC(=O)C1C(=O)NC(C)C1c1ccccc1 (centres undefined),-39,6%,9,-22,-3.5,
COc1ccccc1N1CCN(CCCCOc2cccc3ccccc23)CC1,14,19%,14,86,9.0,
Cc1ccc(NC(=O)CSc2nncc3ccccc23)cc1,nt,nt,nt,-2,2.9,
CCCn1c(N)c(Sc2ccc([N+](=O)[O-])cc2)c(=O)n(CCC)c1=O,nt,-1%,5,95,nt,
Cc1ccc(NC(=O)Cn2nc(C)c3ccccc3c2=O)cc1F,-33,-6%,-8,4,-5.6,
# Next entries
SMILES,YopH PTP inh,Mtb growth,Arbovirus inh,Mtb bLac sens,RecA intein inh,others
CCOC(=O)c1oc2nc(C)c3c(c2c1N)CC(C)(C)OC3,-51,13%,-8,-8,0.7,
COc1ccc(-c2c(C)oc3c(CN4CCCCC4C)c(O)ccc3c2=O)cc1OC (centres undefined),-6,5%,8,0,-4.5,Arbovirus inh repeat=1
O=C(c1ccccc1Cl)N1CCc2ccccc2C1,-23,2%,0,-1,4.8,
O=C(NNC(=O)c1sccc1-n1cccc1)Nc1ccc(F)cc1,nt,-4%,-3,-3,nt,
CC1=C(C(=O)OC2CCCCC2)C(c2ccccc2Br)NC(=O)N1 (centres undefined),nt,nt,nt,-2,-2.3,
CCc1nnc(NC(=O)CSc2nnc(C)n2-c2ccc(C)cc2)s1,-6,nt,0,-5,-1.6,
COc1ccc(N(CC(=O)Nc2cccc(C)c2C)S(=O)(=O)c2c(C)n[nH]c2C)cc1,-36,-1%,-6,-4,-1.1,
CC(C)(C)NC(=O)CN1CCC(O)(c2ccccc2)CC1,-42,-9%,1,-1,1.5,
CCN(CCCNC(=O)COc1cc(=O)n(CC)c2ccccc12)c1ccccc1,-19,nt,-2,-8,4.3,
O=C(COc1ccc(Cl)cc1)N1CCN(S(=O)(=O)c2ccccc2)CC1,0,-1%,4,?,nt,
COc1ccc(OC)c(S(=O)(=O)N2CCC(C(=O)N3CCOCC3)CC2)c1,nt,-2%,-7,0,nt,
CCCn1c(=O)n(C)c(=O)c2c(SCc3cc(C(C)=O)ccc3OCC)nc(C3CC3)nc21,-12,-2%,nt,-8,-2.8,

# 4 compounds already listed, sorted by number of heavy atoms, smallest number first.
SMILES,YopH PTP inh,Mtb growth,Arbovirus inh,Mtb bLac sens,RecA intein inh,others
CC(C)(C)NC(=O)CN1CCC(O)(c2ccccc2)CC1,-42,-9%,1,-1,1.5,
CCOC(=O)c1oc2nc(C)c3c(c2c1N)CC(C)(C)OC3,-51,13%,-8,-8,0.7,
COc1ccc(OC)c(S(=O)(=O)N2CCC(C(=O)N3CCOCC3)CC2)c1,nt,-2%,-7,0,nt,
CCCn1c(=O)n(C)c(=O)c2c(SCc3cc(C(C)=O)ccc3OCC)nc(C3CC3)nc21,-12,-2%,nt,-8,-2.8,

# (continued)
SMILES,YopH PTP inh,Mtb growth,Arbovirus inh,Mtb bLac sens,RecA intein inh,others
Cc1ccc(CN2CCN(Cc3ccc4cc(F)ccc4n3)CC2CCO)o1 (centres undefined),nt,-2%,5,-2,2.7,
CC(CNC(=O)C(=O)NC(C)CCc1ccccc1)Cc1ccccc1 (centres undefined),-30,-2%,-20,-5,0.8,
CNc1cnn(-c2ccc(C)cc2)c(=O)c1Cl,-29,1%,8,-9,0.3,
Cc1cccc(N(CC(=O)NC(C)(C)C)C(=O)CCC(=O)Nc2ccccn2)c1,nt,nt,nt,-3,-0.1,
COc1ccc(C(=O)C2CCCN(Cc3cccn3-c3ccccn3)C2)c(C)c1 (centres undefined),nt,1%,-22,4,3.8,
CCOC(=O)c1cnn(-c2cc(C)cc(C)c2)c1N,nt,0%,7,-7,-2.3,
Cc1ccc(-c2ccc(=O)[nH]n2)cc1,-12,nt,-2,-1,-0.2,
Nc1ccc(O)c2c1C(=O)c1ccccc1C2=O,23,0%,10,3,42*,
O=C(CSc1nc(-c2ccccc2)cc(=O)[nH]1)Nc1ccccc1,nt,nt,nt,-1,-0.9,
COc1ccc(/C(N)=N/OC(=O)CCc2ccccc2)cc1,nt,8%,-11,-2,0.7,
CC1(C)CC(=O)C(C=NCC(N)=O)=C(O)C1,-21,-1%,1,5,1.5,
Cc1ccc(S(=O)(=O)Nc2n[nH]nc2C(=O)NC2CCCCC2)cc1,nt,-4%,6,-15,-0.8,
O=c1c2ccccc2oc2ccc(NCCCn3ccnc3)cc12,nt,nt,nt,-2,-1.0,
CCOC(=O)c1c(S(=O)(=O)NCC(=O)Nc2ccccc2F)c(C)n(C)c1C,nt,nt,nt,-6,-5.1,
CCN(CC)c1ccc(/C=N/NC(=O)c2ccoc2C)c(O)c1,nt,-13%,nt,0,-2.0,
Cc1ccc(C)c(NC(=O)/C(C#N)=C/c2ccc(Sc3nncn3C)c([N+](=O)[O-])c2)c1,-21,-3%,-2,-2,0.0,
Cc1ccc2c(c1)N(C(C)C(=O)NCCc1ccccc1)C(=O)CO2 (centres undefined),-5,-5%,0,-18,3.6,
O=C(c1cccc(C(F)(F)F)c1)N1CCc2c([nH]c3ccccc23)C1C(F)(F)F (centres undefined),nt,-3%,nt,-10,7.4,
Cc1cc(C)nc(N2CCCC(C(=O)NCc3cccs3)C2)n1 (centres undefined),-37,-4%,0,7,-2.6,
CSCC[C@H](NC(=O)[C@@H]1Cc2ccccc2CN1)C(=O)Nc1ccc2c(c1)OCO2,nt,nt,nt,1,-1.1,
O=C(Nc1ccc(Cl)cn1)c1ccc2ccccc2n1,-6,-2%,-10,1,3.2,
Cc1ccc(C(=O)NCC(=O)NCCCc2ccccc2)cc1,nt,nt,nt,-4,-0.2,
O=C1CC(N2CCN(c3ccccc3)CC2)C(=O)N1c1ccc2c(c1)OCCO2 (centres undefined),-39,0%,6,3,nt,
O=C(CN1c2cccc3cccc(c23)S1(=O)=O)NCc1ccc2c(c1)OCO2,-21,-8%,9,5,-1.0,Arbovirus inh repeat=1
O=C1NC(=S)S/C1=C\c1coc2ccc(O)cc2c1=O,nt,-3%,nt,1,-9.3,
